# HSD17B inhib: inhibitors of human HSD17B10 dehydrogenase; Potency, µM (doses to about 57.1 µM), for the others: at the highest dose activity change, negative = inhibition, hits mostly inhibitors; 7.6% of 75,000 active; recombinant HSD17B10, NADH fluorescence kinetic; many of its hits are not listed in these tables; Q99714; active = well fitted inhibition curve with a large enough effect; inconclusive = small, poorly fitted or top-dose-only effect; inactive = no such curve, though single readings can be large or run the other way;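 also: the protocol describes HADH2 (HSD17B10) and not the HSD17B4 of the title; nearly all actives have a fitted effect of over 70% in size; most hits overshoot -100% by far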
#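 His-tagged E. coli-expressed HADH2 at 20 nM in 100 mM Tris-HCl pH 9.0 with 0.01 % Tween-20, preincubated 15 min with compound at room temperature. Reaction with 1 mM NAD+ and 90 uM beta-hydroxybutyryl coenzyme A; NADH fluorescence (360/450 nm) read kinetically over 4 min, last minus first point.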
# * = called active by the depositor; ? = inconclusive; [ ] = remark or other dose. % is scaled to controls: 0 for no effect and ±100 for the full control effect; potency is read from the fitted curve at half-maximal effect. The list is partial (hit frequency here may not be typical).
SMILES,HSD17B inhib
Cc1ccccc1Cn1c(=N)n(CC(=O)c2ccco2)c2ccccc21,2%
CCOC(=O)C(C)Sc1nnc(-c2ccccc2O)n1-c1ccc(C)cc1 (stereo not drawn),-9%
CCOC(=O)C1CCN(c2c(N3CCN(c4ccccc4OC)CC3)c(=O)c2=O)CC1,0%
COc1ccccc1OCc1nnc(SCC(=O)N2CCCCC2)n1-c1ccccc1,10%
COc1cc(-c2nnc(COC(=O)CSc3cc(C)c4ccccc4n3)o2)cc(OC)c1OC,47%[activator]
O=C(CCn1c(=S)[nH]c2ccccc2c1=O)NCC1CCCO1 (stereo not drawn),2%
COc1ccc(C(=O)N2CCC3(CCCN(c4ncccn4)C3)CC2)cc1,-18%
CCCn1nc(NS(=O)(=O)c2ccccc2)c2cc3ccccc3nc21,1%
CCCc1nc(SCC(=O)Nc2cc(C)on2)c2ccccc2n1,-1%
O=C(O)[C@H]1[C@H](C(=O)O)[C@H](C(=O)O)C[C@@H]1C(=O)O,-7%[11.4 µM]
COc1ccc(OCc2nnc3n2N=C(c2ccc(Br)cc2)CS3)cc1,-12%
COCC(=O)N(Cc1ccco1)c1nnc(C2CCOC2)s1 (stereo not drawn),1%

# Quoted from the entries so far for reference:
SMILES,HSD17B inhib
Cc1ccccc1Cn1c(=N)n(CC(=O)c2ccco2)c2ccccc21,2%
CCOC(=O)C(C)Sc1nnc(-c2ccccc2O)n1-c1ccc(C)cc1 (stereo not drawn),-9%
CCOC(=O)C1CCN(c2c(N3CCN(c4ccccc4OC)CC3)c(=O)c2=O)CC1,0%

# Further results follow:
SMILES,HSD17B inhib
CCCCN(CCO)CCCC,-4%
O=C(Nc1ccc(Cl)cc1)N1CC=CCC1,1%
O=C(CN1C(=O)COc2ccccc21)N1CCc2ccccc21,0%
Cc1ccc(S(=O)(=O)Nc2ccc(O)c(C(=O)O)c2)c(C)c1,-16%
CC(=O)Nc1nc(=S)ss1,?
O=C(c1n[nH]c2c1CCCC2)n1ccnc1,12%
O=C(NCc1ccc2c(c1)OCO2)c1ccc(C2SCC(=O)N2Cc2ccco2)cc1 (stereo not drawn),-4%
COc1ccc(CCNCc2csc3nc4ccccc4n23)cc1OC,2%
CC1CCN(C(=O)C2c3ccccc3C(=O)N3CCc4ccccc4C23)CC1 (stereo not drawn),4%
CC1=C(C(=O)OC(C)C)C(C2CC=CCC2)NC(=O)N1 (stereo not drawn),2%
Cn1cnnc1SCc1ccc(C#N)cc1Cl,6%
O=C(c1cccc(F)c1)N1CCC2(CCCN(c3ccccc3)C2)CC1,-7%

# Gathered by group: those above with a furan ring, fused or not (3)
SMILES,HSD17B inhib
Cc1ccccc1Cn1c(=N)n(CC(=O)c2ccco2)c2ccccc21,2%
COCC(=O)N(Cc1ccco1)c1nnc(C2CCOC2)s1 (stereo not drawn),1%
O=C(NCc1ccc2c(c1)OCO2)c1ccc(C2SCC(=O)N2Cc2ccco2)cc1 (stereo not drawn),-4%

# More compounds
SMILES,HSD17B inhib
CCOC(=O)c1ccc(N2C(=O)c3n[nH]c(C)c3C2c2ccccn2)cc1 (stereo not drawn),3%
Cc1ccc(N2CCN(c3cc(C)nc4c5c(C)cc(C)nc5nn34)CC2)cc1,16%
CC1CCN(CCCn2c(=S)[nH]c3ccc(N4CCOCC4)cc3c2=O)CC1,-24%
C[C@@H](C(=O)O)c1ccc(N2Cc3ccccc3C2=O)cc1,-2%[25.6 µM]
O=C(NCc1ccco1)C(c1cccs1)N(C(=O)C1COc2ccccc2O1)c1cccc(O)c1 (stereo not drawn),?
C[C@H](NC(=O)OC(C)(C)C)c1nnc(SCC(N)=O)o1,7%
CCC(C)(C)n1nnnc1C(C(C)C)N1CCSCC1 (stereo not drawn),3%
CCCn1c(-c2ccc(F)cc2)nc2c(NCCCN(CC)CC)nc(C)nc21,25µM*
CCOc1cc(C(=O)NC(C)COC)cc(OCC)c1OCC (stereo not drawn),3%
COc1cccc(NC(=O)CC2(CC(=O)O)CCCC2)c1,-1%
CCOC(=O)C1=C(C)NC(=O)NC1c1ccc(N(C)C)cc1 (stereo not drawn),2%
COC(=O)N1CCC2(CCN(Cc3nccs3)CC2)CC1,-1%
COC(=O)[C@@]1(Cc2ccccc2)[C@H]2c3cc(C(=O)N4CCCC4)n(Cc4ccccn4)c3C[C@H]2CN1C(=O)c1ccccc1,-7%
OCc1ccccc1CNCc1ccccc1,8%
COc1ccc(C(C)=O)cc1COC(=O)Cc1n[nH]c(=O)c2ccccc12,-2%
O=C(OCC(=O)N1CCN(c2ccccc2)CC1)c1ccc2ncsc2c1,?
Cc1cccc2[nH]c3c(=O)n(CCN4CCNCC4)cnc3c12,25µM*
Cn1c(=O)c2c(ncn2CC(=O)Nc2ccccc2Sc2ccccc2)n(C)c1=O,-3%
O=C(Nc1cnn(Cc2ccc(F)cc2)c1)c1cnccn1,2%
COc1ccc(NC(=O)N(C2CCCCC2)C(C)c2cccnc2)c(OC)c1 (stereo not drawn),-8%
Cc1ccc(S(=O)(=O)N2CCN(S(=O)(=O)c3ccc4c(c3)OCCO4)CC2)cc1,7%
COc1cccc(N2C(=O)N(c3ccccc3Cl)C3CS(=O)(=O)CC32)c1 (stereo not drawn),2%
O=C1C2CCCN2C(c2ccccc2)N1c1ccc(F)cc1 (stereo not drawn),3%
Cc1[nH]c2ccccc2c(=O)c1CN1CCCCC1,-4%
O=C(c1ccc(Cn2c(=O)[nH]c3ccccc3c2=O)cc1)N1CCN(c2ccccn2)CC1,?
CCOC(=O)c1[nH]c(COC(=O)CCCOc2ccccc2)c(C(=O)OCC)c1C,-8%
CCOC(=O)C1[C@H]2C(=O)N(C(C)c3ccc(OC)cc3)C[C@]23C=C[C@H]1O3 (stereo partly drawn),2%
N=C(N)N,3%
O=C(O)CCCC(=O)NCCc1cccc(Cl)c1,2%
Cc1ccc(NC(=O)N2C(=O)C3(OCCO3)c3ccccc32)cc1,11%
O=C(COC(=O)c1ccco1)Nc1nc2ccccc2s1,-3%
CC(C(=O)N1CCCc2c1c(=O)oc1ccc(O)cc21)N1CCc2ccccc2C1 (stereo not drawn),-18%
CCC(C)c1ccc(NC(=O)c2cccnc2)cc1 (stereo not drawn),3%
Cc1cc(OCCNCCO)cc(C)c1Cl,1%
CCC(C)c1c(O)nc(SCc2ccccc2)[nH]c1=O (stereo not drawn),3%
O=C(Nc1cccc(F)c1)N1CC[C@@]2(CCCN(C(=O)c3cnccn3)C2)C1,10%

# The last 4 compounds of the part before are carried over, then new ones follow.
SMILES,HSD17B inhib
CCC(C)c1ccc(NC(=O)c2cccnc2)cc1 (stereo not drawn),3%
Cc1cc(OCCNCCO)cc(C)c1Cl,1%
CCC(C)c1c(O)nc(SCc2ccccc2)[nH]c1=O (stereo not drawn),3%
O=C(Nc1cccc(F)c1)N1CC[C@@]2(CCCN(C(=O)c3cnccn3)C2)C1,10%
CCCN1CCN(C(=O)Cn2ncc3ccccc32)CC1,?
Cc1ccccc1C(=O)NCCN=C1NS(=O)(=O)c2ccccc21,-2%
CCOC(=O)c1[nH]c(C)c(/C(O)=C2\C(=O)C(=O)N(CCCN(C)C)C2c2cccnc2)c1C (stereo not drawn),2%
CC(C)Oc1ccc(CSc2nnc3n(C)c(=O)c4c5c(sc4n23)CCCC5)cc1,17%
CCOC(=O)N1CCN(C(=O)Cc2ccc(-n3c(=O)[nH]c4ccccc4c3=O)cc2)CC1,25µM*
COc1ccc2nc(SCc3nc(N)nc(Nc4ccccc4)n3)[nH]c2c1,-4%
CC(=O)OC[C@@H]1O[C@H](CCON=C(C)C)C=C[C@@H]1OC(C)=O,6%[11.4 µM]
O=C(COC(=O)c1ccc[nH]c1=O)c1ccc(Cl)s1,-4%
CCC(C)C(=O)Nc1c2c(nc3c1CCC3)CCCC2 (stereo not drawn),6%
COCCNC(=O)C(c1ccc(C)o1)N(Cc1ccc(OC)cc1)C(=O)Cn1nnc2ccccc21 (stereo not drawn),-3%
COc1ncc2nc(-c3ccc(Cl)cc3)c(=O)n(-c3ccccc3)c2n1,25µM*
COC(=O)c1cccc(Oc2nc3c(c(=O)n(C)c(=O)n3C)n2C(C)C)c1,15%
COC(=O)c1ccc(NC2=CC(=O)CC(C)(C)C2)cc1,?
O=C1CSC2(CCCCC2)N1CCO,-2%
COC(=O)CN(c1ccc(OC)cc1)S(=O)(=O)c1c(C)noc1C,-8%
Cc1ccc(NC(=O)c2cccc(N3C(=O)CCC3=O)c2)nc1,5%
CCn1c(COc2cccc3cccnc23)nnc1SCC(=O)O,?
COc1ccc(-c2cc(C(=O)N3CCOCC3)no2)cc1OC,1%
CCOC(=O)NC(=O)CSc1nnnn1-c1ccc(C)cc1,8%
CC(=O)N1[C@H](C)C=C[C@]1(Cc1ccccc1)C(=O)NCc1cc(F)cc(C(F)(F)F)c1,-2%
CN1CCN(S(=O)(=O)c2ccc(NC(=O)Cc3cccs3)cc2)CC1,0%
CC(C)OCCCNC(=O)c1cc2c(=O)n(C)c3ccccc3c2n1C,32µM*
CCC(c1nnc(SCC(=O)Nc2ccc(C(=O)Nc3ccccc3OC)cc2)o1)N(C)C (stereo not drawn),-3%
COCCn1c(=O)c2c(nc3n2CCN3c2ccc(C)cc2)n(C)c1=O,10%
O=C1C2=CC[C@H]3C(=O)N(Cc4ccc5c(c4)OCO5)C(=O)[C@@H]3[C@@H]2[C@H](O)[C@@H]2O[C@H]12,-11%[11.4 µM]
CC1CCN(C(=O)C(NS(=O)(=O)c2cccc3nsnc23)c2ccccc2)CC1 (stereo not drawn),0%
O=C(CCCCCn1c(=S)[nH]c2cc3c(cc2c1=O)OCO3)N1CCN(Cc2ccccc2)CC1,2%
COC(=O)[C@@H]1CC[C@H](C)[C@@H](c2ccc(C)cc2)N1C(=O)c1ccc(/C=N\O[C@@H](C)c2cn([C@H]3COC[C@H]3O)nn2)cc1,0%[11.4 µM]
CCC(C)[C@H](NC(=O)Nc1ccc(C(C)=O)cc1)C(=O)OC (stereo partly drawn),7%
Fc1cccc(Cl)c1Cn1nnc2c(N3CCC4(CC3)OCCO4)ncnc21,-2%
Cc1ccccc1OCc1nc(-c2ccc(NC(=O)c3ccco3)cc2)no1,32µM*
O=C(CNC1CCCCCC1)Nc1ccc(S(=O)(=O)NC2CC2)cc1,3%
COC(=O)c1sccc1NC(=O)Cn1cnc2c1c(=O)n(C)c(=O)n2C,7%
CCN(CC)S(=O)(=O)c1ccc(NC2CCCc3ccccc32)nc1 (stereo not drawn),-14%
CC1(C)CC[C@]2(C(=O)O)C(O)C[C@@]3(C)C(=CCC4[C@@]5(C)CCC(O)C(C)(C)C5CC[C@@]43C)C2C1 (stereo partly drawn),1%
O=C1c2ccccc2C(Nc2ccc(S(=O)(=O)N3CCCCC3)cc2)N1c1ccccn1 (stereo not drawn),2%
COc1ccc(-c2cc(C(=O)Nc3ccccc3SC)no2)cc1OC,?
Cn1c(Cn2c(=O)sc3ccccc32)nnc1SCC(=O)N1CCc2ccccc21,0%
O=C(Nc1ccccc1)N(CCN1CCOCC1)Cc1cccc(Cl)c1,-3%
O=C(C1CCN(S(=O)(=O)Cc2ccccc2)CC1)N1CCN(c2ncccn2)CC1,-3%
CN(C)/C=N/c1cc(=O)n(C)c(=O)n1CC1CC1,-7%
Cc1nn(CC(=O)NCC2CCCO2)c(=O)c2ccccc12 (stereo not drawn),0%
O=C(CN1C(=O)C2(OCCO2)c2ccccc21)c1ccc(F)cc1,-1%
CCCOc1ccc(C2c3c(oc4ccccc4c3=O)C(=O)N2CCN(CC)CC)cc1OC (stereo not drawn),1%
Cc1ccc(-c2noc(C3CCN(S(C)(=O)=O)CC3)n2)o1,9%
Cc1cc(C)c(C)c(OCC(=O)NCCN(C)C)c1,-4%
Cc1occc1-c1nc(-c2ccncc2)no1,5%
Cc1cccc(-c2noc(CCC(=O)NCc3ccccc3)n2)c1,-1%

# Five entries from above, with bars between the fields.
smiles | HSD17B inhib
O=C(C1CCN(S(=O)(=O)Cc2ccccc2)CC1)N1CCN(c2ncccn2)CC1 | -3%
CN(C)/C=N/c1cc(=O)n(C)c(=O)n1CC1CC1 | -7%
Cc1nn(CC(=O)NCC2CCCO2)c(=O)c2ccccc12 (stereo not drawn) | 0%
O=C(CN1C(=O)C2(OCCO2)c2ccccc21)c1ccc(F)cc1 | -1%
CCCOc1ccc(C2c3c(oc4ccccc4c3=O)C(=O)N2CCN(CC)CC)cc1OC (stereo not drawn) | 1%

# The list goes on.
SMILES,HSD17B inhib
Cc1cc(C(=O)Nc2ccc(N3CCOCC3)cc2)c2ccccc2n1,6%
Nc1nc2c3ccccc3nc(Cc3ccccc3)n2n1,?
O=C(NC1CCCCC1)C(c1cccs1)N(Cc1cccs1)C(=O)c1ccco1 (stereo not drawn),4%
O=C(O)c1nc2nc(Cl)c(Cl)nc2[nH]1,-6%[11.4 µM]
CCOCC(=O)Nc1ccc(S(=O)(=O)Nc2ncccn2)cc1,-10%
CCCCCn1ccc(=N)cc1,1%
Cc1c(C(=O)Nc2ccc3c(c2)OCO3)sc2nc(-c3ccccc3)cn12,66%[activator]
NCC(=O)NC1(C(=O)O)CCCC1,4%[11.4 µM]
CCOc1ccc(NC(=O)COc2nsnc2N2CCCCC2)cc1,4%
COc1ccc2c(c1OC)C(=O)N1c3cccc(Cl)c3C(=O)OC21 (stereo not drawn),3%
CCOC(=O)N1CCN(C(=O)c2ccc(CNS(=O)(=O)c3ccc(OC)cc3)cc2)CC1,7%
O=C(CC1CCCCC1)NCCCN1CCOCC1,1%
O=C(NCc1ccc(Cl)cc1)c1noc2c1CCCC2,-2%
CC1N/C(=C\C(=O)c2ccccc2)N(O)C1(C)C (stereo not drawn),1%
c1ccc(CC2CCN(c3nnnn3-c3ccccc3)CC2)cc1,-7%
Cc1ccc(NC(=O)COS(=O)c2ccc(C)cc2)cc1 (stereo not drawn),3%
COc1cccc2cc(C(=O)N3CCc4ccccc43)c(=O)oc12,1%
COc1ccc(C2C(C(N)=O)=C(C)Nc3nc(-c4ccccc4)nn32)cc1OC (stereo not drawn),-5%
